# Menin MLL FP FL – inhibitors of human menin-MLL interaction, wild-type MLL peptide; Fluorescence polarization, fluorescein-MLL peptide displacement from menin; FP activity change, % at 61.4 µM; 290,000 tested, under 10 active; AID 1766; inconclusive = falling polarisation curve, or a change in total fluorescence; inactive = total fluorescence flat and polarisation flat or rising; no compound was filed as active; the % refers to the polarisation; negative = inhibition;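 note: % of control where 0% means no effect; inhibitors lower the polarisation; unlabelled MLL peptide was the positive control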
# TRPML1 agonist – agonists of human TRPML1 channel | Q9GZU1 | TRPML1-expressing cells, Ca2+ dye fluorescence, FDSS; host cell line not named in the record; reference of the full effect not given here | activation, % (test concentration not listed) | actives 0.12% (n = 410,000) | AID 624414; in the data active = activation above about 50%; inconclusive = about 30% to 50%; inactive = below about 30%; note: 0% is about no effect; the text of the record puts the active cut at 80%
# Target sequence (Q9GZU1 whole entry, looked up): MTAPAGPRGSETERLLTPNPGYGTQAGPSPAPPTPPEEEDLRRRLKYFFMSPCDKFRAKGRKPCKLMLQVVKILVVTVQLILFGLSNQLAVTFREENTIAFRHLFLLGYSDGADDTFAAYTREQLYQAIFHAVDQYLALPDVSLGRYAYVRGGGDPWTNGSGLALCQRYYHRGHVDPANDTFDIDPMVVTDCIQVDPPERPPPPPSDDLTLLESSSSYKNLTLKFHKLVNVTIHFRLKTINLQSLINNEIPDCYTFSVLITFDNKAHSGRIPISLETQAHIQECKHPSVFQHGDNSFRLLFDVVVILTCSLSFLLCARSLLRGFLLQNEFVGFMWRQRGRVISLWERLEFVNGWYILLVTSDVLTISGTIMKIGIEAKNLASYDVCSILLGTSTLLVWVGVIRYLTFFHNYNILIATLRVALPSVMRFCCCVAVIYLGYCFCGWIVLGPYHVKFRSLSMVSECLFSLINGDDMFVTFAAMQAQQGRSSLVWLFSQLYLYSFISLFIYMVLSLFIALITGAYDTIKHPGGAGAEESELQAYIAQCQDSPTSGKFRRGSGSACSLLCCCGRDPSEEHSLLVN
#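 Kinetic FDSS Ca2+ read in Tet-induced TRPML1-DL cells (ABD Ca8 dye plus quencher, 45-90 min RT loading): baseline, then compound, then 110 s agonist window; EC80 agonist 54-4 at 4uM final added afterwards for a 110 s antagonist window.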
# gsp antagonist – antagonizes gsp, the McCune-Albright syndrome mutation | gsp-mutant cells, cAMP HTRF, 30 min; control for the full effect not named in the record | Potency, µM (titrated, usually from 76.9 µM), inactives show at the top dose activity change, negative = inhibition, hits mostly inhibitors | actives 0.4% (n = 340,000); active = falling curve of any shape with a large fitted effect; inconclusive = falling curve, mostly with a smaller effect; inactive = flat or rising curve; cell line not stated here;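 note: intracellular cAMP measured with PDE inhibitor Ro 20-1724 present during compound exposure; potency is the fitted concentration of half-maximal effect; % is set by controls: 0 for no effect and ±100 for the full control effect; nearly all actives have a fitted effect of over 65% in size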
#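 Cells, 2000/well, grown 16–24 h in DMEM 10% FBS with 0.5 mg/ml G418, then compounds plus […] (300 uM addition stock), 30 min at 37C. cAMP read by HTRF (cAMP-d2 and anti-cAMP antibody-K in lysis buffer) after 30 min RT.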
# TRPML1 inh – inhibitors of human TRPML1 channel | Q9GZU1 | TRPML1-inducible cells, Ca2+ dye fluorescence, FDSS; hits give low values; inhibition of EC80 agonist-evoked calcium signal | activity change, negative = inhibition, % (concentration not given with the values) | actives 0.02% (n = 390,000); in the data active means activity change below about -50%; inconclusive means about -30% to -50%; inactive means above about -30%;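 note: stimulus is agonist 54-4 at its EC80 concentration; % is set by controls: 0 for no effect and ±100 for the full control effect; compound concentration not given in the record; the text of the record puts the active cut at -80%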
#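 Calcium fluorescence in TRPML1-DL cells induced overnight with Tet: a 110 s read after compound pin addition, then a 110 s antagonist read after challenge with 54-4 at 4 uM final (EC80).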
# gsp agonist – gsp mutant agonism. gsp mutant cells, cAMP HTRF, 30 min; control for the full effect not named in the record. Potency, µM (highest dose often 76.9 µM), inactives show at the highest dose activation (cAMP increase), actives largely listed as activators. actives 0.13% (n = 340,000). AID 624287; active = well fitted activation curve with a large enough effect; inconclusive = small, poorly fitted or top-dose-only effect, or another doubt; inactive = no such curve, though single readings can be large or run the other way; cell line not stated here;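 note: phosphodiesterase inhibitor Ro 20-1724 added with compounds to block cAMP breakdown; potency is the fitted concentration of half-maximal effect; nearly all actives have a fitted effect of over 60% in size; about a fifth of the inactives were tested at one dose only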
#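 Cells stably selected in G418 were plated at 2000/well, grown 16-24 hr, then given compounds in DMSO with the PDE inhibitor […] (300 uM solution added) for 30 min at 37C; cAMP was read by HTRF.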
# ClpP mod – qHTS Assay for Activators of ClpP. Potency, µM (highest dose often 57.5 µM), without a hit: top-dose activity change, negative = active. purified B. subtilis ClpP, FRET peptide cleavage, 20 min. actives 1.9% (n = 340,000); active = well fitted falling curve with a large enough effect; inconclusive = small, poorly fitted or top-dose-only effect; inactive = no such curve, though single readings can be large or run the other way; note: potency is the fitted concentration of half-maximal effect; the source files actives as falling curves though it sought activators and does not explain the sign; nearly all actives have a fitted effect of over 65% in size; many hits overshoot -100%
# Target sequence (P80244 whole entry, looked up): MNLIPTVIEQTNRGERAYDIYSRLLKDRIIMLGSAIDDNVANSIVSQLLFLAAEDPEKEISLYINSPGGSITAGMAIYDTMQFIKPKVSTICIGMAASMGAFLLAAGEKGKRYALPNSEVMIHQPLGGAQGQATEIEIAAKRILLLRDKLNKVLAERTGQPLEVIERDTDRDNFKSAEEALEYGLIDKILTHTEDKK
#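 Buffer: 100 mM Tris/HCl pH8, 100 mM KCl, 0.05% low protease BSA, 2.5% glycerol, 0.01% Tween-20. ClpP 10 microg/mL final; 20 min RT; delta FRET normalized to ADEP and DMSO controls.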
# Starred values were filed as active, the others as inactive; u = inconclusive; x = not tested or not shown; [ ] = dose if it differs, or a comment.
SMILES,Menin MLL FP FL,TRPML1 agonist,gsp antagonist,TRPML1 inh,gsp agonist,ClpP mod
CCCCN(C(=O)/C=C/c1ccc(OC)cc1)C1CCS(=O)(=O)C1 (centres undefined),x,-0.4,-7%,3,-5%,-7.9%
S=C(Nc1ccc(Cc2ccncc2)cc1)Nc1cccc(Cl)c1,-6.1,-0.2,5%,-18,-34%[15.4 µM],x
CC(=O)Oc1cccc(N2C(=O)CC(Nc3ccc(N4CCOCC4)cc3)C2=O)c1 (centres undefined),-3.2,-0.4,u,5,29%,0.5%
O=C(COc1ccc2c(-c3ccccc3)cc(=O)oc2c1)Nc1cccnc1,2.5,-1.1,-14%,-8,14%,-28%
CCS(=O)(=O)NCc1ccc2c(c1)cc(C)n2C,-22,-0.2,2%,-8,11%,-23%
Cn1c(CCC(=O)Nc2cc(S(C)(=O)=O)ccc2Cl)nc2cc(S(=O)(=O)N3CCOCC3)ccc21,x,-0.1,-8%,-3,u,-3.7%
Cc1ccc(C(=O)N2CCCc3ccccc32)c(F)c1F,0.0,1.0,3%,12,3%,-2.6%
COC(=O)c1scc(-c2ccc(C)cc2)c1S(=O)(=O)N1CCN(c2ccc(C(C)=O)cc2)CC1,x,0.7,x,-6,x,-2.3%
CC(CCc1ccccc1)NC(=O)C(Cc1ccccc1)NC(N)=O (centres undefined),0.9,0.5,3%,-7,u,x
COc1cccc(CNS(=O)(=O)c2cnc(N)nc2)c1,x,0.3,x,14,x,-3.9%
COc1ccc(S(=O)(=O)N2CCC(Cc3ccccc3)CC2)cc1C(N)=O,-4.3,-0.6,13%,5,13%,1.2%
COC(=O)c1ccc(C2CC(=O)NC3=C2C(=O)CCC3)cc1 (centres undefined),0.5,-0.9,13%,-6,0%,-0.6%
CCCc1cc(C(=O)NCCc2ccc(OC)c(OC)c2)no1,-1.0,-0.1,4%,1,-19%,-0.2%
CCOC(=O)C1CCN(C(=O)COc2ccc(N(C)S(=O)(=O)c3ccc(OCC)cc3)cc2)CC1,0.8,-0.1,-16%,7,12%,0.9%
COC(=O)Nc1ccc(C)c2nsnc12,3.9,-0.5,0%,-15,3%,-1.0%
O=C(NCCCCc1ccccc1)C1CC(c2cccc([N+](=O)[O-])c2)=NO1 (centres undefined),-2.5,2.3,u,4,2%,-0.7%
COc1ccccc1NC(=O)C[n+]1ccccc1C,-5.3,-0.1,6%,34,-7%[15.4 µM],-1.2%
CCC(C)c1ccc(N(CC(=O)NC(C)(C)C)C(=O)CNC(=O)c2cccs2)cc1 (centres undefined),u,-1.1,8%,0,-1%[15.4 µM],-5.6%
CC(C)C(NC(=O)C1CCCCC1)C(=O)NC1=NCCS1 (centres undefined),1.1,1.0,11%,-16,-6%[15.4 µM],-2.2%
COc1ccc(/C=N/Nc2nnc(Cc3ccccc3)c(=O)[nH]2)cc1OC,-1.7,1.0,9%,2,1%[15.4 µM],x

# Reprinted at random: 2 compounds from above, in no set order.
SMILES,Menin MLL FP FL,TRPML1 agonist,gsp antagonist,TRPML1 inh,gsp agonist,ClpP mod
CCC(C)c1ccc(N(CC(=O)NC(C)(C)C)C(=O)CNC(=O)c2cccs2)cc1 (centres undefined),u,-1.1,8%,0,-1%[15.4 µM],-5.6%
COc1ccc(S(=O)(=O)N2CCC(Cc3ccccc3)CC2)cc1C(N)=O,-4.3,-0.6,13%,5,13%,1.2%

# Following part
SMILES,Menin MLL FP FL,TRPML1 agonist,gsp antagonist,TRPML1 inh,gsp agonist,ClpP mod
Nc1ccccc1N=c1ssnc1Cl,1.1,-0.6,3%,4,u,3.6%
COc1ccc(C2=C(C)C(N3CCC(C(=O)Nc4cc(C)ccc4C)CC3)=NS2(=O)=O)cc1,x,3.8,x,16,x,1.7%
CCCNc1c(F)c(F)c2c(C)c3ccccc3nc2c1F,u,0.9,1%,-2,29%,-3.6%
O=[N+]([O-])c1nn(-c2ccc(Cl)cc2)n(O)c1=NCc1ccccc1Cl,0.4,0.6,12%,-1,19%,x
COCC(C)NS(=O)(=O)c1ccc(C(=O)NC(Cc2ccccc2)c2ccccc2)cc1 (centres undefined),0.3,1.9,u,-21,1%,-3.7%
Cc1cccc(N2CCN(C(=O)CCC(=O)N3CC(C)Oc4ccccc43)CC2)c1C (centres undefined),5.4,0.0,-21%,5,-48%[inhibitor],1.6%
C=CCNC(=O)c1oc2ccc(S(=O)(=O)N3CCC4(CC3)OCCO4)cc2c1C,x,-0.1,-15%,9,-15%,-0.9%
Cc1ccc(NC(=O)CN2CCc3ccccc3C2)cc1S(=O)(=O)N(C)C,0.0,0.6,x,20,4%[15.4 µM],x
COc1ccccc1NS(=O)(=O)c1cc2c(cc1C)NC(=O)CO2,-6.3,-0.8,6%,12,-1%,2.3%
C=CCNCC(=O)NN=C(c1ccccc1)c1ccccc1,1.1,-0.2,-6%,-9,10%,17%
COc1ccc(CCNc2nc(SCc3ccccc3F)nc3ccccc23)cc1OC,x,3.8,x,4,x,0.5%
CC(Cl)C(=O)NC(=O)NC12CC3CC(CC(C3)C1)C2 (centres undefined),1.9,-0.4,u,30,-3%,-1.5%
COC(=O)[C@@H](NC(=O)Nc1cccc(OC)c1)C(C)C,5.2,-0.3,2%,-8,-13%,0.2%
FC(F)(F)c1cccc(Cn2nnnc2-c2cc(Cl)cc(Cl)c2)c1,-0.1,1.4,-2%,8,-18%,-0.1%
Cc1ccc2nc(SCC(=O)NC3CCS(=O)(=O)C3)[nH]c2c1 (centres undefined),x,0.1,8%,-20,8%,-2.2%
CC(C)c1ccc(NC(=O)CSc2nc(-c3ccccc3F)nc3nc[nH]c23)cc1,0.8,-0.1,25%,3,-7%[15.4 µM],-4.3%
CSC(=Nc1ccccc1)N=C(SCc1ccccc1)N(C)C,x,0.1,2%,66,11%,-2.6%
O=C(Nc1ccccc1N1CCN(C(=O)c2ccc(Cl)cc2)CC1)c1ccc2c(c1)OCO2,-0.5,1.1,-10%,71,22%,-9.2%
O=C(CN1C(=O)COc2ccc(S(=O)(=O)N3CCCCCC3)cc21)N1CCN(c2cccc(C(F)(F)F)c2)CC1,x,1.6,x,22,x,-5.5%
O=C(CN1CCN(S(=O)(=O)c2cc(C(F)(F)F)ccc2Cl)CC1)N1CCc2ccccc2C1,x,-1.5,-8%,-18,9%,-0.6%

# Gathered by group, the entries above containing two or more sulfur atoms
SMILES,Menin MLL FP FL,TRPML1 agonist,gsp antagonist,TRPML1 inh,gsp agonist,ClpP mod
Cn1c(CCC(=O)Nc2cc(S(C)(=O)=O)ccc2Cl)nc2cc(S(=O)(=O)N3CCOCC3)ccc21,x,-0.1,-8%,-3,u,-3.7%
COC(=O)c1scc(-c2ccc(C)cc2)c1S(=O)(=O)N1CCN(c2ccc(C(C)=O)cc2)CC1,x,0.7,x,-6,x,-2.3%
Nc1ccccc1N=c1ssnc1Cl,1.1,-0.6,3%,4,u,3.6%
Cc1ccc2nc(SCC(=O)NC3CCS(=O)(=O)C3)[nH]c2c1 (centres undefined),x,0.1,8%,-20,8%,-2.2%
CSC(=Nc1ccccc1)N=C(SCc1ccccc1)N(C)C,x,0.1,2%,66,11%,-2.6%

# Among those listed so far, two have a nitro group on carbon.
SMILES,Menin MLL FP FL,TRPML1 agonist,gsp antagonist,TRPML1 inh,gsp agonist,ClpP mod
O=C(NCCCCc1ccccc1)C1CC(c2cccc([N+](=O)[O-])c2)=NO1 (centres undefined),-2.5,2.3,u,4,2%,-0.7%
O=[N+]([O-])c1nn(-c2ccc(Cl)cc2)n(O)c1=NCc1ccccc1Cl,0.4,0.6,12%,-1,19%,x

# (list continues)
SMILES,Menin MLL FP FL,TRPML1 agonist,gsp antagonist,TRPML1 inh,gsp agonist,ClpP mod
Cc1ccc2nc(-c3ccc(NC(=O)c4ccco4)cc3)[nH]c2c1,2.8,0.9,-5%,-3,-26%,-5.6%
CCC(Sc1nc2ccsc2c(=O)n1CCC(=O)O)C(=O)Nc1ccc(Cl)cc1 (centres undefined),x,-0.2,x,-1,27%,-1.5%
CCOc1ccc(CNc2ccc3c(c2)ncn3C(C)(C)C)cc1,-1.6,-0.1,-17%,-6,19%,-27%
CC(C)OCCCNc1ncnc2c1[nH]c1ccc(F)cc12,-4.7,-1.3,40µM*,-2,-39%[inhibitor],16µM*
CCOc1ccc(NC(=O)Nc2cc(C)ccc2OC)cc1,-1.8,0.7,-10%,-2,-24%,1.4%
COc1ccc(C2CC(=O)C3=C(C2)NC(C)=C(C#N)C3c2ccc(N(C)C)cc2)cc1 (centres undefined),u,0.9,-2%,16,8%,5.8%
CCCCC(C(=O)NC(C)(C)C)N(Cc1ccccc1)C(=O)c1snc(C(N)=O)c1N (centres undefined),0.5,0.8,-13%,-7,-46%[inhibitor],-17%
CN1CCN(C(=O)C2=C[C@H](c3ccc(Br)cc3)C[C@H](OCCCCO)O2)CC1,6.2,-0.6,1%,-7,x,-0.4%
CCN(CC)c1ccc(NC(=O)CN2C(=O)c3cccnc3Oc3ccc(Cl)cc32)c(C)c1,x,1.8,x,-17,x,0.8%
COc1cc([N+](=O)[O-])cc2sc(NC(=O)C(C)(C)C)nc12,-4.7,-0.5,-6%,5,41%,x
COc1ccc(C(C)=O)cc1COC(=O)c1cccc(N(C)C)c1,4.5,0.7,u,-1,22%,-10%
Cc1cc(NC(=O)CCC2COc3ccccc3O2)no1 (centres undefined),-0.2,-0.6,-11%,2,-4%,0.7%
Cc1ccc2c(c1)N(CCCC(=O)NCc1ccc3c(c1)OCO3)C(=O)CO2,0.6,-1.2,4%,1,17%,0.8%
CCOC(=O)C1=C(C)N=C2SCCC(=O)N2[C@@H]1/C=C/c1ccccc1,2.6,3.3,7%,5,9%,2.3%
COC(=O)C1=COC(C)C2CN3CCc4c([nH]c5ccccc45)C3CC12 (centres undefined),u,x,-7%,x,x,-11%
Cc1ccc(C(=O)Nc2nc(-c3ccco3)c(-c3ccco3)s2)o1,x,-0.7,u,-8,7%,u
COc1cc([C@@H]2CC=C(C(=O)O)[C@H](c3cccc(Cl)c3)N2S(=O)(=O)c2ccc(C)cc2)cc(OC)c1OC,x,-0.1,-6%,-13,-16%,-0.7%
Cc1ccc2c(c1)COc1c3ccc(C(=O)N[C@@H](C)CO)cc3nn1-2,-2.2,0.4,-9%,-7,x,3.5%
Cc1cccc(NC(=O)c2nc[nH]c2C(=O)N[C@@H](Cc2ccccc2)C(=O)OCc2ccccc2)c1,0.7,0.0,5%,22,x,u
CC(OC(=O)c1cnc(Cl)c(Cl)c1)C(=O)NCc1ccccc1 (centres undefined),x,0.0,-8%,10,-24%,-1.6%
Cc1ccc(Cl)cc1NC(=O)CSc1sc2c(O)cc(=O)[nH]c2c1C#N,28,0.0,-8%,51,-35%[inhibitor],x
O=C(CSc1nc2ccc(Cl)cc2[nH]1)N1CCN(C(=O)c2ccco2)CC1,3.5,0.2,3%,-11,-19%,-0.1%
COc1cccc(N2CCN(C(=O)c3ccc(CS(=O)c4ccc(C)cc4)o3)CC2)c1 (centres undefined),x,1.2,16%,-6,-11%[15.4 µM],x
